# KCNQ2 enhance = potentiators of rat KCNQ2 potassium channel. CHO-K1 KCNQ2, FluxOR thallium flux fluorescence; stronger effect = higher value. B-score at 10 µM. 0.54% of 310,000 active;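 active = fluorescence ratio B-score at least 3 SD of library B-scores, with initial fluorescence B-score within 3 SD, cut at about 5.3 in these data; same plate scores as AID 2156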;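 note: B-score of peak minus minimum over baseline fluorescence ratio after K+ and Tl+ stimulus; positive B-score means potentiation of KCNQ2 with more thallium influx and brighter signal; only the inactives scoring about 0 or higher are listed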
# Target sequence (O88943 whole entry, looked up): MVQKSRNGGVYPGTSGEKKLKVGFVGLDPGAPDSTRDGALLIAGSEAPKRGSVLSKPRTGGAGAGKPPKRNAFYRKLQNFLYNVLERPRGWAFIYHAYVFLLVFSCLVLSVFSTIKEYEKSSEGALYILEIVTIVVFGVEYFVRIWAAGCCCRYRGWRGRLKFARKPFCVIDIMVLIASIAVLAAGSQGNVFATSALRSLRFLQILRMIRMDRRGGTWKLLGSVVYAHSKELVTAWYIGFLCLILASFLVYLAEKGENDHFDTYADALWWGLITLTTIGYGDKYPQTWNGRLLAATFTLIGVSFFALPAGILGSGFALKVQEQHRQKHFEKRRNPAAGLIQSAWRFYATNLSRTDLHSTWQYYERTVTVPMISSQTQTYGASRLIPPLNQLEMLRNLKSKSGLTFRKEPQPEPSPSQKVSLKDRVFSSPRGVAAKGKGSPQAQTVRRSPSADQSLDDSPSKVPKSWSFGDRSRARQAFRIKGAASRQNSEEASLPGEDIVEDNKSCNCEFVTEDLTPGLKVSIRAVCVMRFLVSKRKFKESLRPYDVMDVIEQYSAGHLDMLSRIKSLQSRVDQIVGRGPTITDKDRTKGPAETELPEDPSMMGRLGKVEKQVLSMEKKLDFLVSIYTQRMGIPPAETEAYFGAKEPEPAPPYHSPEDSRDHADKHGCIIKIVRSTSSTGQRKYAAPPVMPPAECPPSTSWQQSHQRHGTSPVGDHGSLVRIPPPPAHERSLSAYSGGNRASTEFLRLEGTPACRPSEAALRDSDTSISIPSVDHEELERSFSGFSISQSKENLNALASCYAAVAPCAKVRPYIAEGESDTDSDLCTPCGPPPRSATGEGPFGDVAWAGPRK
# KCNQ2 enhance baseline = also measured in KCNQ2 enhance; calls as there; B-score; compound at 10 µM; measured here: initial fluorescence intensity artifact check;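 brightness before thallium and not channel activity; 0 = typical well and far values either way flag optical interference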
# * marks the source's active call; other numbers are inactive results. An excerpt. The share of hits here may be higher or lower than overall.
# Second line of a record – KCNQ2 enhance, KCNQ2 enhance baseline
CCn1c(SCC(=O)c2ccc(NC(C)=O)c(OC)c2)nnc1-c1ccc(NS(C)(=O)=O)cc1
  1.8, 0.3
CCN(CC)S(=O)(=O)c1ccc(OC)c(NC(=S)Nc2ccc(C)c(C)c2)c1
  0.18, -0.02
O=C(Nc1nc2ccccc2c(=O)s1)c1ccco1
  1.1, 0.88
CS(=O)(=O)c1ccc(C(=O)Nc2ccc(S(=O)(=O)N3CCCCC3)cc2)cc1
  0.04, -0.93
N#CCSc1nnc(CNc2cccc(Cl)c2)o1
  1.4, 0.02
CCC(=O)O/N=C(\N)c1ccc(Oc2cc(C)c(Cl)c(C)c2)c([N+](=O)[O-])c1
  0.5, -0.34
COc1ccc(-n2ccc(=O)c(C(=O)Nc3ccc(S(=O)(=O)Nc4nccs4)cc3)n2)cc1
  1.8, 0.16
COc1cc(O)c(C(CC(=O)N2CCOCC2)c2cc(OC)c(OC)c(OC)c2)c(OC)c1 (centres undefined)
  1.4, 0
O=C(O)C1CC=CCC1C(=O)NCCCCc1ccccc1 (centres undefined)
  1.6, 0.01
CC(Sc1nn(-c2ccc(F)cc2)c(=S)s1)C(=O)c1c(N)n(C)c(=O)n(C)c1=O (centres undefined)
  1.6, -0.87
CCCNS(=O)(=O)c1ccc(CCC(=O)N2CCCCC2)cc1
  1.4, 1.7
COCCn1c(=O)[nH]c2cc(C(=O)NCCN3CCN(c4ccc(OC)cc4)CC3)ccc2c1=O
  0.59, 0.66
Cc1cccc(C)c1NC(=O)NC1(C(=O)NCCN2CCOCC2)CCCCC1
  0.33, -0.26
Cc1ccc(-n2ccc(=O)c(C(=O)Nc3ccc(S(=O)(=O)Nc4nccs4)cc3)n2)cc1
  1.7, 0.25
Cc1ccc(NC(=O)CCc2nc3ccccc3[nH]2)cc1C
  1.3, -0.53
COC(=O)N/N=C/c1cn(CCOc2ccc(OC)cc2)c2ccccc12
  1.5, -0.2
C1=C(CCNCC2CCCCC2)CCCC1
  0.07, 1.9
CN(CC(=O)Nc1ccc(OC(F)(F)F)cc1)C(=O)Cc1c(Cl)cccc1Cl
  1.2, 1.2
CCn1c(SCC(=O)NCC2CCCO2)nc2cc(S(=O)(=O)N3CCCCC3)ccc21 (centres undefined)
  1.5, -3.1
CSc1nnc(NC(=O)C23CC4CC(CC(C4)C2)C3)s1
  1.5, 1.7
Cc1nn(Cc2ccccc2)c(Cl)c1C(=O)OC1CCOC1=O (centres undefined)
  0.02, 2.8
C=CCn1c(Br)nc2c1c(=O)[nH]c(=O)n2C
  1.7, 0.03
CCn1nc(NS(=O)(=O)c2ccc(NC(C)=O)cc2)c2cc3cccc(C)c3nc21
  0.63, 0.16
CC(NC(=O)c1cc(COc2c(F)cccc2F)on1)c1cnn(-c2ccccc2)c1 (centres undefined)
  2.2, 0.19
O=C(Nc1cccc(S(=O)(=O)N2CCOCC2)c1)[C@@H]1CCCN1S(=O)(=O)c1ccc(Cl)cc1
  1.9, -0.54
O=S(=O)(CCc1nc2ccccc2o1)c1ccc2ccccc2c1
  1.6, 1.8
CCCCCN1C=CC(=C2C(=O)c3ccccc3C2=O)C=C1
  0.4, 0.18
O=C(CCNS(=O)(=O)c1cccc2nonc12)NCc1cccs1
  1.7, -0.1
O=C(c1ccco1)N1CCN(S(=O)(=O)Cc2ccccc2Cl)CC1
  0.79, 0.74
COc1ccc(CC(=O)NN2C(=O)c3ccccc3C2=O)cc1
  0.96, -0.91

# Quoted at random: three records from the list, in no set order.
# Second line of a record – KCNQ2 enhance, KCNQ2 enhance baseline
CCCCCN1C=CC(=C2C(=O)c3ccccc3C2=O)C=C1
  0.4, 0.18
C=CCn1c(Br)nc2c1c(=O)[nH]c(=O)n2C
  1.7, 0.03
CC(NC(=O)c1cc(COc2c(F)cccc2F)on1)c1cnn(-c2ccccc2)c1 (centres undefined)
  2.2, 0.19

# (listing goes on)
# Second line of a record – KCNQ2 enhance, KCNQ2 enhance baseline
Nc1c(C(=O)NCc2ccc3c(c2)OCO3)nnn1Cc1cccc(F)c1
  0.34, -0.21
CCc1nnc(NC(=O)CN2CCN(S(C)(=O)=O)CC2)s1
  1.7, -0.76
CCN(C(=O)COC(=O)CCc1ccccc1OC)c1c(N)n(Cc2ccccc2)c(=O)[nH]c1=O
  0.11, 0.01
CCNC(=O)c1ccc(=O)n(Cc2ccc(Cl)cc2Cl)c1
  0.55, -0.67
O=C(Nc1c(F)cc(F)cc1Br)c1cccnc1
  1.8, -2
CC1CCN(S(=O)(=O)c2ccc(C(=O)NC3CCS(=O)(=O)C3)cc2)CC1 (centres undefined)
  0.05, 0.03
O=C1/C(=C/c2ccccc2)NC(=S)N1C(c1ccccc1)c1ccccc1
  0.01, 1.4
CC(C)=CCN1CCN(CCC2=C(C)CCCC2(C)C)CC1CCO (centres undefined)
  1.6, -0.35
Cc1ccccc1C(=O)/C=C1\NC(=O)CS1
  1.1, -1.2
COc1cc(C(=O)NCc2ccc(S(N)(=O)=O)cc2)ccc1OCC(=O)Nc1cccc(C(F)(F)F)c1
  0.37, -0.43
CC(Oc1ccccc1)C(=O)NNC(=O)c1ccccn1 (centres undefined)
  0.08, 0.03
Fc1ccc(CSc2ccc(-c3ccc4c(c3)OCO4)nn2)cc1
  0.2, -0.54
O=C1COc2ccc(C(=O)COC(=O)c3ncc(Cl)c(Cl)c3Cl)cc2N1
  1.4, 0.65
Cc1cnc(CNC(=O)CC2C(=O)NCCN2Cc2cccc(F)c2F)cn1 (centres undefined)
  1.2, 0.83
N#CCCn1ncc2ccccc21
  0.41, 0.43
Cc1c(C(=O)NC2CC2)oc2ccc(S(=O)(=O)N3CCCCCC3)cc12
  2.9, -0.34
Cc1ccc(C)c(N2CCN(C(=O)CN(C)S(=O)(=O)c3ccc4c(c3)CCC(=O)N4)CC2)c1
  0.27, -0.98
CC(C)CC(=O)NC(=S)Nc1ccc(N2CCOCC2)cc1
  1.8, 0.1
C/C(NCCN1CCOCC1)=C(\C#N)C(N)=O
  1, 0.1
O=C1c2cccnc2C(=O)N1Cc1ccccc1
  2.3, -0.65
COC(=O)C(O)(CC(=O)Nc1ccc(Cl)cc1Cl)C(F)(F)F (centres undefined)
  1.3, 0.28
COc1ccc(C(=O)NNC(=O)CSc2nc(C(C)C)nc3ccccc23)cc1
  0.19, 0.72
Cc1oc(S(=O)(=O)N(C)C)cc1C(=O)Nc1ccc(Cl)cc1
  1.1, -3.2
O=C1C2CC=CCC2C(=O)N1Cc1nnc(-c2ccc(Cl)cc2)o1 (centres undefined)
  0.03, -0.73
CN(C)CCNC(=O)c1csc(Nc2cccc3ccccc23)n1
  0.29, 0.71
CCCC(=O)N(Cc1cc(=O)[nH]c2ccccc12)c1ccc(C)cc1C
  0.18, 2.3
COc1ccccc1NS(=O)(=O)c1cccs1
  0.04, -0.03
CCCCOc1ccc(-c2nnc(-c3cc[n+](C)cc3)o2)cc1
  1.6, -0.52
O=C(CC1C(=O)NCCN1Cc1ccc(F)cc1)NCCN1CCCc2ccccc21 (centres undefined)
  1.4, 1.9
CCOC(=O)C(=O)/C(C#N)=C/Nc1ccc(F)cc1
  0.87, -0.8
COCCN1C(=O)N[C@@H](c2cccc(C(F)(F)F)c2)[C@@H](C(=O)OC)[C@H]1C
  0.5, -0.02
CC(C)c1ccc(/C=C2\SC(N3CCOCC3)=NC2=O)cc1
  2.6, -0.94
COc1ccc(/C=C/C(=O)NC(=S)Nc2ccc(S(N)(=O)=O)cc2)cc1OC
  0.67, -0.9
O=C(OCC(=O)N1CCCC1)c1cc(Br)ccc1Cl
  0.12, 1.6
O=C(N/N=C/C(Br)=C\c1ccccc1)c1ccc2nc[nH]c2c1
  2.5, 1
O=C(Nc1ccc(F)cc1)NC1CCN(Cc2nnnn2Cc2ccco2)CC1
  0.02, 0.01
NC(=O)COC(=O)c1ccccc1SCC(=O)NC1CCCCCCC1
  0.02, -0.22
COc1cc(OC)cc(C(=O)N2CCN(c3ncccn3)CC2)c1
  0.71, -1.4
COC(=O)/C=C/c1ccc(-n2cncn2)cc1
  1.2, -1.2
CCCC(=O)NC(c1ccco1)c1cc(Cl)c2cccnc2c1O (centres undefined)
  0.69, 0.19
COc1ccc(C(=O)NC(C)CCc2ccccc2)c(O)c1 (centres undefined)
  2.4, -0.23
Cc1csc(NS(=O)(=O)c2cccc([N+](=O)[O-])c2)n1
  0.01, -0.18
CC(C)(C)c1ccc(-c2nc(C#N)c(N3CCC(C(N)=O)CC3)o2)cc1
  4.6, -0.06
CCOc1ccc(S(=O)(=O)Nc2cccc(C(=O)N(C)Cc3cccc(OC)c3OC)c2)cc1
  0.73, 0.03
Cc1ccc(C(=O)NNC(=O)c2ccc(C)cc2)cc1
  0.06, -0.48
O=C(Cn1c(=O)cnc2ccccc21)NCC(=O)Nc1ccc(F)c(F)c1
  2, 0.16
O=C1N/C(=C\c2ccc(O)cc2)C(O)=C1C=NCc1ccccc1
  0.27, -1.6
O=C(NCc1ccccn1)c1cn(-c2ccccc2)nc1-c1ccc(Cl)cc1
  0.04, 0
COc1ccc(N(CC(=O)NCCc2cccc(C)c2)S(=O)(=O)c2c(C)noc2C)cc1
  0.23, -1
Cc1c(Cl)c(C(F)F)nn1CC(=O)NC1C(=O)N2C(C(=O)O)=C(CSc3nnnn3C)CSC12 (centres undefined)
  1, -1

# Later entries.
# Second line of a record – KCNQ2 enhance, KCNQ2 enhance baseline
COc1ccc(Nc2cc(C)nc(N3CCN(C(=O)c4ccc5c(c4)OCO5)CC3)n2)cc1
  0.03, -0.73
O=C(COC(=O)c1cncc(Br)c1)NC1CCCCCC1
  1.3, 0.39
CCc1ccc(CN2CC(C(=O)O)CC2=O)cc1 (centres undefined)
  0.49, 1.2
Cc1ccccc1NC(=O)C(=O)NC(C)CCc1ccccc1 (centres undefined)
  0.22, -0.02
O=C(c1cc(-c2ccc(F)cc2)on1)N1CCCC1
  0.49, -0.01
Cc1ccc(C)c(Sc2ccc(NC(=O)CCl)cc2)c1
  0.13, -0.57
COc1cc(CCC(=O)Nc2ccncc2Cl)cc(OC)c1OC
  1.3, 0.59
CC(C)c1nccn1S(=O)(=O)c1cc([N+](=O)[O-])ccc1Cl
  0.56, -1.1
CC(=O)C1C(c2ccc(OC(F)F)cc2)NC(=O)NC1(O)C(F)(F)F (centres undefined)
  0.79, 0.13
CC(C)(C)NC(=O)C(c1ccncc1)N(C(=O)Cn1nnc(-c2cccs2)n1)C1CCCCC1 (centres undefined)
  0.53, 0
CC(=O)N1CCc2cc(S(=O)(=O)NCCC(=O)NC3CCCCCC3)ccc21
  0.09, -0.02
COc1ccc(CCNC(=O)CN(C)S(=O)(=O)c2cccs2)cc1OC
  0.38, 0.93
CCCCN(C(=O)C1CC(=O)N(c2ccc3c(c2)OCCO3)C1)c1c(N)n(CCCC)c(=O)[nH]c1=O (centres undefined)
  0.13, -1.8
Oc1ccc(/C=N/Nc2cc(N3CCCC3)nc(N3CCCC3)n2)cc1O
  2.5, 1.1
Cc1ccc(NC(=O)/C=C/c2cccc([N+](=O)[O-])c2)nc1
  1.5, -1.4
COc1ccc(C(=O)Nc2cccc3cccnc23)cc1OC
  2.3, -0.72
Cc1ccc(-c2cc(=O)c3ccccc3[nH]2)cc1
  0.04, -0.35
O=C(ON=C1CCSCC1)c1ccccc1
  0.24, -0.09
COc1nc(NC(C)=O)nc(C)c1Br
  0.56, -1.6
CN(C)CCCNc1c2c(nc3ccccc13)CCC2
  0.3, 1.5

# Taken from above.
# KCNQ2 enhance baseline, Cc1ccc(-c2cc(=O)c3ccccc3[nH]2)cc1 = -0.35
# KCNQ2 enhance baseline, Oc1ccc(/C=N/Nc2cc(N3CCCC3)nc(N3CCCC3)n2)cc1O = 1.1
# KCNQ2 enhance baseline, CC(=O)N1CCc2cc(S(=O)(=O)NCCC(=O)NC3CCCCCC3)ccc21 = -0.02
# KCNQ2 enhance, O=C(ON=C1CCSCC1)c1ccccc1 = 0.24
# KCNQ2 enhance baseline, CCCCN(C(=O)C1CC(=O)N(c2ccc3c(c2)OCCO3)C1)c1c(N)n(CCCC)c(=O)[nH]c1=O (centres undefined) = -1.8
# KCNQ2 enhance baseline, COc1ccc(C(=O)Nc2cccc3cccnc23)cc1OC = -0.72
# KCNQ2 enhance, COc1nc(NC(C)=O)nc(C)c1Br = 0.56

# Continuation.
# Second line of a record – KCNQ2 enhance, KCNQ2 enhance baseline
Cc1nn(C)cc1CNC(=O)c1cnn2c(C(F)F)cc(C3CC3)nc12
  1.7, -0.38
O=C1NCC(c2ccccc2)C1C(=O)N/N=C\c1ccc(-c2ccc(Cl)c(Cl)c2)o1 (centres undefined)
  2.6, 0.23
Cc1onc(-c2ccccc2)c1C(=O)OCC(=O)N1CCN(c2ccccc2)CC1
  1.6, 1.3
Nc1nccc(/C=C/c2ccc(Cl)cc2)n1
  1.6, -0.04
NC(=O)c1ccc(NC(=O)c2cnc3ccccc3n2)cc1
  0.62, -0.86
CC(C)CNC(CC(=O)Nc1cccc([N+](=O)[O-])c1)C(=O)O (centres undefined)
  1.2, 0.06
COc1cccc(-n2nc(-c3ccnn3-c3ccc(F)cc3)c(=O)n(C)c2=O)c1
  1.8, -1.8
COc1ccc(NC(=O)c2ccccc2NC(=O)NC2CCCCC2)cc1
  0.08, 1.6
CO/N=C(\c1nonc1N)N1CCN(c2ccc(Cl)cc2[N+](=O)[O-])CC1
  0.76, 0.52
COC(=O)c1ccc(-c2ccc(/C=N/N3C(=O)C4C5C=CC(C6CC56)C4C3=O)o2)cc1 (centres undefined)
  0.17, -0.44
CC(Oc1ccc(Br)cc1)C(=O)Nc1nnc(C2CC2)s1 (centres undefined)
  0.21, -2.3
Cc1ccccc1Cn1nnc(-c2cccc(C(=O)O)c2)n1
  0.47, 1.4
CCC(C)NC(=O)CSc1ncnc2sccc12 (centres undefined)
  2, 8
Cc1ccc(S(=O)(=O)c2nnn3c2nc(N2CCOCC2)c2ccccc23)c(C)c1
  0.93, 0.8
COc1ccc(/C=N/NC(=O)c2ccc3c(c2)NC(=O)C(C)(C)O3)cc1OC
  2.2, -0.59
CCS(=O)(=O)c1nc(S(=O)(=O)c2ccc(C)cc2)c(NCc2ccccn2)s1
  0.28, 0.08
COc1ccc(C(=O)Nc2ccc(NC(=O)c3cccs3)cc2)cc1[N+](=O)[O-]
  0.5, -0.48
